High-throughput results (PubChem BioAssay)
TAR Tat displ: HIV-1 TAR-Tat binding disruption. hit rate 0.6% among 100,000. HIV-1 TAR RNA, Tat peptide displacement FRET; hits give high values. z-score (concentration not given with the values). AID 1259389;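 also: score is relative to mean and SD of negative controls; some compounds called inactive have numbers as strong as hits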
CDC25B-CDK2 inh: human CDC25B-CDK2/CyclinA binding inhibition. hit rate 0.72% among 94,000. HTRF CDC25B-CDK2/CyclinA binding, anti-His/anti-Flag; hits give high values. AID 1259370. P30305+P24941. z-score (no concentration beside the values);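 also: score is relative to mean and SD of negative controls; strong numbers were not always called active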
* marks the source's active call; other numbers are inactive results; . = no result given; & = joins results of further samples.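 The calls were made as follows: active = z-score from 3 up in half or more of its runs; inactive = the rest.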 An excerpt, so the mix of outcomes need not match the whole.

no.	molecule	TAR Tat displ	CDC25B-CDK2 inh
1	COC[C@]12CN(C=O)C3[C@@H]4[C@H](OC)C1[C@]3(C1CC3(O)C(OC)C(O)C4(OC(C)=O)C1C3OC(=O)c1ccccc1)[C@@H](OC)C[C@H]2O (some centres undefined)	1.6	.
2	COc1ccc2[nH]c3c(c2c1)CCNC3	.	1.2
3	COc1c(CC=C(C)C)c2c(c3oc(=O)c(-c4ccc(O)cc4)c(O)c13)C=CC(C)(C)O2	1.4	.
4	NC(N)=N/N=C/c1ccc(/C=N/N=C(N)N)cc1	.	7.6*
5	CN(C)C(=O)ONC(=O)Cc1ccccc1	.	-1.9
6	Clc1ccc(CCNCc2ccncc2)cc1	0.71	0.84
7	O=C(c1noc2c1COc1ccccc1-2)N1CCC2(CC1)OCCO2	.	0.07
8	CCCCC12CN3CC(C)(CN(C1)C3c1ccccn1)C2=O (centres undefined)	-1.3	-0.66
9	CCCCCCCCCOc1ccc2[nH]cc(CCN)c2c1	0.89	.
10	CN1C(=O)[C@]23CC4=CC=C[C@H](O)[C@H]4N2C(=O)[C@@]1(CO)SS3	2.5	.
11	CCCCCCn1c(N)c(C(=O)OC)c2nc3ccccc3nc21	1.2	-0.23
12	C[N+](C)(C)CC(=O)[O-]	0.24	.
13	O=[N+]([O-])c1ncc[nH]1	2	.
14	O=C1/C(=C/c2c(F)cccc2Cl)N2CCC1CC2	.	-1.9
15	Cc1cc(C)nc(-n2nc(-c3ccccc3)c3c2NC(=O)CSC3c2cc(F)cc(F)c2)n1 (centres undefined)	-0.11	-1.8
16	CCC(C)C(=O)O[C@@H]1C[C@@]2(C)[C@H](c3ccoc3)OC(=O)CC23OC2(C)O[C@]14[C@]1(C)[C@@H](CC(=O)OC)C5(C)CC1(O)[C@](O)(C5OC(=O)C1(C)OC1C)[C@@H](OC(C)=O)[C@]34O2 (some centres undefined)	0.64	.
17	COc1cc(C(O)CN)ccc1O (centres undefined)	.	-1.9
18	O=C(c1ccccc1)N1CCC2(CC1)OCCO2	.	-1.1
19	Cc1ccc(-n2nc(C)c3c2NC(=O)CSC3c2ccc(Cl)cc2)cc1 (centres undefined)	0.91	0.35
20	CN(C(=O)c1cccs1)c1ccc(Cl)cc1C(=O)c1ccccc1	.	-3.4
21	COc1cccc(-n2c(/C=C/c3c[nH]c4ccccc34)nc3ccccc3c2=O)c1	-5.9	-2.4
22	Fc1cccc(CN2CCN(Cc3ccccc3F)CC2)c1	1.3	1.1
23	CN(C)C(=O)Oc1ccc(Br)cc1C(=O)Nc1ccc(F)cc1	.	-1.3
24	S=C(S)N1CCCCC1	.	-3
25	C[C@]12CC[C@H]3[C@@H](CCC4=CC(=O)CC[C@@]43C)[C@@H]1CC[C@@H]2O	0.62	.
26	CCOC(=O)C1=C(N)OC(C)=C(C(=O)OC)C12C(=O)Nc1ccccc12 (centres undefined)	.	-0.5
27	Oc1ccc(C2(c3ccc(O)cc3)CCCCC2)cc1	1.5	0.72
28	O=C(NCc1ccccc1)N1Cc2ccccc2-n2cccc2C1c1cccs1 (centres undefined)	0.36	.
29	C=CCc1cc(OC)c2c(c1)OCO2	1.9	.
30	Fc1cccc(Cl)c1CNC1CN2CCC1CC2 (centres undefined)	-1.4	-0.9

Retrieved by structure from the list above (4):
no.	molecule	TAR Tat displ	CDC25B-CDK2 inh
3	COc1c(CC=C(C)C)c2c(c3oc(=O)c(-c4ccc(O)cc4)c(O)c13)C=CC(C)(C)O2	1.4	.
12	C[N+](C)(C)CC(=O)[O-]	0.24	.
25	C[C@]12CC[C@H]3[C@@H](CCC4=CC(=O)CC[C@@]43C)[C@@H]1CC[C@@H]2O	0.62	.
11	CCCCCCn1c(N)c(C(=O)OC)c2nc3ccccc3nc21	1.2	-0.23

Later entries.
no.	molecule	TAR Tat displ	CDC25B-CDK2 inh
31	C[N+]1(C)CCN(c2ccccc2)CC1	-1.9	-0.52
32	O=C1NC(=O)C(=O)C(=O)N1	0.47	.
33	CC(=O)NCCc1c[nH]c2ccccc12	.	-0.29
34	COc1cc2c(=O)n(-c3ccccc3)c(=S)[nH]c2c(OC)c1OC	.	-0.22
35	Cc1ccc2nc3c(cc(C#N)c(=O)n3CCc3ccccc3)c(=O)n2c1	-4.1	-1.2
36	COc1cc2c(cc1OC)C(C)NCC2 (centres undefined)	1.3	.
37	O=C(O)C1C2C(=O)OCC12Br (centres undefined)	.	-0.15
38	Brc1cccc(C2N3CCCN23)c1 (centres undefined)	1.4	-1.7
39	Cc1ccccc1CN1CCN(Cc2cccc(F)c2)CC1	.	-0.22
40	Fc1ccc(CN2CCN(Cc3ccccc3Cl)CC2)cc1	.	-2.5
41	CCC(=O)N1N=C2C3CCN(CC3)C2C1c1ccc(SC)cc1 (centres undefined)	0.85	-1.7
42	CCOP(=S)(OCC)SCSCC	0.15	.
43	O=C1NC(=S)NC(=O)C12C(c1ccc(F)cc1)NC(=S)NC2c1ccc(F)cc1 (centres undefined)	.	-1
44	C=C(C)[C@H]1CN[C@H](C(=O)O)[C@H]1CC(=O)O	1.1	1.1
45	Cc1ccc(C2SCC(=O)Nc3c2c(=O)[nH]n3C(C)C)cc1 (centres undefined)	0.34	-1.7
46	Cc1nn(-c2ccc(Cl)cc2)c2c1C(c1ccc(F)cc1F)SCC(=O)N2 (centres undefined)	-1.5	-1.1
47	CC(=O)NC1C(OC2OC(CC(O)C3OC(n4ccc(=O)[nH]c4=O)C(O)C3O)C(O)C(O)C2NC(=O)/C=C\CCCCCCCCCC(C)C)OC(CO)C(O)C1O (centres undefined)	3	.
48	CNC(=O)Oc1noc2ccc(Cl)cc12	.	-2.9
49	O=C1N(c2ccc(Cl)cc2)C(c2cccnc2)N2CCCN12 (centres undefined)	-0.97	0.19
50	Cc1cccn2c(=O)c3cc(C(=O)N4CCC5(CC4)OCCO5)n(C)c3nc12	.	-1.4
51	CN(C(=O)Cc1ccc(Cl)c(Cl)c1)C(CN1CCCC1)c1cccc(OCC(=O)O)c1 (centres undefined)	.	-0.8
52	Cc1[nH]c2ccccc2c1C1=CCNCC1	-0.05	-1.3
53	O=C(Cn1c2ccccc2c2cn[nH]c(=O)c21)N1CCC2(CC1)OCCO2	.	1.1
54	O=C(CSc1c2c(nc3ccc(Cl)cc13)CCCC2)N1CCC2(CC1)OCCO2	.	-8.7
55	O=C(NCCc1ccccc1)N1Cc2ccccc2-n2cccc2C1c1cccs1 (centres undefined)	0.45	.
56	Cc1ccc(C(c2c(O)[nH]c(=S)[nH]c2=O)N2CCCC(C)C2)cc1 (centres undefined)	.	-0.41
57	CN(C)[C@@H]1C(=O)C(C(N)=O)=C(O)[C@@]2(O)C(=O)C3=C(O)c4c(O)ccc(Cl)c4[C@@](C)(O)[C@H]3C[C@@H]12	12*	.
58	Clc1ccc(-c2ccc(Cl)cc2)cc1	.	-3.4
59	CC(=O)N1CN2CN(C1)CN(C(C)=O)C2	1.1	0.22
60	CN1C(=O)C(Cc2nc3ccccc3c(=O)n2-c2ccc(Br)cc2)c2ccccc21 (centres undefined)	1.3	-0.76

Four structures out of the list, ordered by molar mass, low to high.
no.	molecule	TAR Tat displ	CDC25B-CDK2 inh
44	C=C(C)[C@H]1CN[C@H](C(=O)O)[C@H]1CC(=O)O	1.1	1.1
49	O=C1N(c2ccc(Cl)cc2)C(c2cccnc2)N2CCCN12 (centres undefined)	-0.97	0.19
43	O=C1NC(=S)NC(=O)C12C(c1ccc(F)cc1)NC(=S)NC2c1ccc(F)cc1 (centres undefined)	.	-1
57	CN(C)[C@@H]1C(=O)C(C(N)=O)=C(O)[C@@]2(O)C(=O)C3=C(O)c4c(O)ccc(Cl)c4[C@@](C)(O)[C@H]3C[C@@H]12	12*	.

New compounds follow:
no.	molecule	TAR Tat displ	CDC25B-CDK2 inh
61	CC[C@@]1(O)C[C@H](O[C@H]2C[C@H](N(C)C)[C@H](O)[C@H](C)O2)c2c(cc3c(c2O)C(=O)c2c(O)cccc2C3=O)[C@H]1C(=O)OC	1.9	.
62	O=C1C(Cl)=C(Cl)C(=O)C(Cl)=C1Cl	-0.83	.
63	CNC(C)[C@H](O)c1ccccc1 (some centres undefined)	-0.7	.
64	CCCCCOc1ccc(C2SCC(=O)Nc3c2c(=O)[nH]n3C(C)CC)cc1 (centres undefined)	-0.88	2.3
65	COc1ccc(Br)cc1C1SCC(=O)Nc2c1c(C)nn2-c1nc(C)cc(C)n1 (centres undefined)	-0.87	-0.42
66	O=[N+]([O-])c1cc([As](=O)(O)O)ccc1O	2.8	.
67	CCCC(=O)O[C@@H]1[C@@H](C)[C@@]2(O)[C@@H](C=C(CO)C[C@]3(O)C(=O)C(C)=C[C@@H]23)[C@@H]2C(C)(C)[C@]12OC(=O)CCC	2.7	.
68	CCCCC/C=C\C/C=C\C/C=C\C/C=C\CCCC(=O)Nc1ccc(O)cc1	0.43	.
69	COc1cc(OC)c2c(c1)O[C@H](c1ccc(OC)c(OC)c1)[C@@H](O)C2	-0.65	.
70	COC1=CC23CCCN2CCc2cc4c(cc2C3C1O)OCO4 (centres undefined)	1.1	.
71	CN1CCc2cccc(Cl)c2CC1	.	-0.72
72	Cc1[nH]nc2c1C(c1ccc(OC(C)C)cc1)SCC(=O)N2 (centres undefined)	0.24	-2.4
73	COCc1cc(C2SCC(=O)Nc3c2c(=O)[nH]n3C2CCCCC2)ccc1OC (centres undefined)	1.9	-1.5
74	Cn1cnc2c(=O)oc3ccc(S(=O)(=O)N4CC5CC(C4)c4cccc(=O)n4C5)cc3c21 (centres undefined)	-0.56	.
75	C/C=C1/CN2CCC34C(=C(C(=O)OC)C1CC23)Nc1c(O)cccc14 (centres undefined)	1.4	.
76	CCN(C(C)=O)c1cccc(-c2ccnc3c(C#N)cnn23)c1	-0.2	.
77	CC(C)(OO)c1ccccc1	1.8	.
78	CCC(CC)n1[nH]c(=O)c2c1NC(=O)CSC2c1ccc(F)cc1 (centres undefined)	2.9	-1.1
79	Cc1[nH]nc2c1C(c1c(F)cccc1Cl)SCC(=O)N2 (centres undefined)	0.98	-0.33
80	N#CCC(=O)c1cccs1	.	-0.16
81	CC1CN=C(Nc2ccccc2)S1 (centres undefined)	.	-1.3
82	Clc1ccccc1CNCCc1c[nH]c2ccccc12	1.1	1.2
83	CCC(=O)N1N=C2C3CCN(CC3)C2C1c1ccccc1Cl (centres undefined)	0.1	0.47
84	COCCCNC(=O)N1Cc2ccccc2-n2cccc2C1c1cccs1 (centres undefined)	-0.04	.
85	COc1cc2c(cc1O)C[C@H]1c3c(cc(O)c(OC)c3-2)CCN1C	13*	.
86	CCC(CC)N1CCN(Cc2ccc(F)cc2)CC1	.	-2.5
87	CCC1(C(=O)c2ccc(Cl)cc2)C2c3cc(Br)ccc3OC(=O)C21C(=O)OC (centres undefined)	0.26	1.8
88	COc1cccc(C(c2c(O)c3ccccc3oc2=O)c2c(O)c3ccccc3oc2=O)c1OC	.	-1.2
89	CC(C)Oc1ccc(C2SCC(=O)Nc3c2c(=O)[nH]n3C2CCOC(C)(C)C2)cc1 (centres undefined)	1.9	-0.39
90	COc1cccc(Oc2c(C)oc3cc(OC(=O)N(C)C)ccc3c2=O)c1	1.2	-1.6

The list continues:
no.	molecule	TAR Tat displ	CDC25B-CDK2 inh
91	CO/C1=C\C(C)=C\[C@@H](C)[C@@H](O)[C@@H](C)C/C(C)=C/C=C\[C@H](OC)C([C@@H](C)[C@@H](O)[C@H](C)[C@@]2(O)C[C@@H](O)[C@H](C)[C@@H](C(C)C)O2)OC1=O (some centres undefined)	2.6&0.62	.
92	CCn1nc(-c2ccccc2Cl)nc2c(=O)n(C)c(=O)nc1-2	0.73	0.51
93	CCOc1ccc(C2SCC(=O)Nc3c2c(=O)[nH]n3C2CCCCC2)cc1 (centres undefined)	0.24	-2
94	O=S(=O)(c1ccc(F)cc1)N1CN2CCN(C2)C1	-0.44	-1.4
95	CN1Cc2c(ccc3c2OCO3)[C@@H]2[C@H]1c1cc3c(cc1C[C@@H]2O)OCO3	1.4	.
96	NCCCCCCCc1c[nH]c2ccccc12	.	0.59
97	C=CCOc1ccc(C2SCC(=O)Nc3c2c(C)nn3-c2nc3ccccc3s2)cc1 (centres undefined)	1.6	-4.1
98	c1ccc(Cn2ccnc2)cc1	1.6	.
99	CCN1CCN(c2nc3ncccc3o2)CC1	1.1	1.4
100	CCOC(=O)N1CCC(Nc2c(N3CC4CC(C3)c3cccc(=O)n3C4)c(=O)c2=O)CC1 (centres undefined)	-1	-2.5
101	CCn1nc(-c2ccccc2)nc2c(=O)n(C)c(=O)nc1-2	-7.7	-0.92
102	O=C1C=C2C=C[C@@H]3C[C@@]2(O1)[C@H]1CCCCN31	2.4	.
103	Cc1ccc(-c2nc3c(=O)n(C)c(=O)nc-3n(C)n2)cc1	1	0.91
104	NCC(=O)c1ccccc1	0.49	.
105	CC(=O)C1CC[C@H]2C3CC[C@H]4C[C@H](O)CC[C@]4(C)C3CC[C@]12C (some centres undefined)	0.73	.
106	CC1CN(C)C(C)CC1n1[nH]c(=O)cc1N (centres undefined)	-0.49	-1.9
107	CC1=C(O)C(=O)C=C2C1=CC=C1[C@@]2(C)CC[C@@]2(C)[C@@H]3C[C@](C)(C(=O)O)CC[C@]3(C)CC[C@]12C	3.7	.
108	CC12CN3CC(c4ccccc4)(CN(C1)C3c1ccccc1)C2=O (centres undefined)	0.89	1.1
109	CC(C)C1c2cccn2-c2ccccc2CN1C(=O)Nc1ccc(F)cc1 (centres undefined)	1	.
110	O=C(NC(OC(NC(=O)C(F)(F)F)C(Cl)(Cl)Cl)C(Cl)(Cl)Cl)C(F)(F)F (centres undefined)	.	-2.2
111	O=C(O)c1cn(Cc2ccc(Cl)cc2)c2ccccc12	-0.72	-0.89
